Sa helicase inh = blocks Staphylococcus aureus DNA helicase. purified S. aureus helicase, fluorescence unwinding assay; about half of the hits fall short of the stated cut. inhibition, %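 (tested at about 80 µM)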. 120,000 tested, 0.05% active;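 active means both duplicates at 50% or more, or one of them with a favoured structure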;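 further: 0% = mean of negative control wells and 100% = mean of positive control wells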
MgrA DNA FP = S. aureus MgrA-DNA binding modulation. fluorescence polarization. inhibition, %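 (about 10 µg/mL by stock and volumes)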. 84,000 tested, 0.13% active. AID 602314;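 active means above 50% in either of two replicates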;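 further: 0% = protein plus DNA without compound and 100% = DNA alone without protein; higher means less MgrA bound to DNA so lower polarization; one replicate is shown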
An asterisk follows results filed as active; nt = not tested or not shown; & = joins results of further samples. This is a subset. The share of hits here may be higher or lower than overall.

SMILES | Sa helicase inh | MgrA DNA FP
COc1ccc(Br)cc1S(=O)(=O)N1CCCCCC1 | 1.0 | 0.6
CC(=O)ON1C(C)(C)CC(OC(=O)c2ccco2)CC1(C)C | -10.0 | 0.0
CCOC(=O)N1CCC(NC(=O)CCc2c(C)nc3cc(-c4ccccc4)nn3c2C)CC1 | 2.0 | nt
CC(=O)Oc1ccc(C)cc1-n1nc2ccccc2n1 | 0.0 | -1.6
O=C(O)/C=C/C(=O)NN1C(=O)c2ccccc2C1=O | -1.0 | -3.7
CC[N+]1(CC(O)COC2CC(C)CC(C)(C)C2)CCOCC1 (stereo unspecified) | -27.0 | 0.0
Cc1ccc(NC(=O)N(Cc2cc3cc(C)cc(C)c3[nH]c2=O)CC2COCCO2)cc1 (stereo unspecified) | 6.0 | 0.3
CC(C)(C)OC(=O)Cn1c(=O)cnc2ccccc21 | -14.0 | nt
Cc1nc(C(N)=O)c(N)n1C | -2.0 | 1.2
O=C(c1ccccc1)c1nccn1-c1ccc(Cl)nn1 | 7.0 | nt
COc1ccccc1CC(=O)N(C(C)C)C(C)C | 12.0 | 0.5
CC(=O)N1c2ccccc2C(C)(c2ccccc2)CC1(C)C (stereo unspecified) | -4.0 | 3.0
N#Cc1c(-c2ccccc2)cc(-c2ccccc2)nc1N | 9.0 | -0.9
CCn1c(=S)[nH]c2c(c1=O)C1(CCCC1)Cc1ccccc1-2 | 29.0 | nt
OCCNc1nc2ccccc2n1-c1ncnc2sc3c(c12)CCCC3 | -25.0 | nt
CCN(CC(=O)Nc1ccccc1)S(=O)(=O)c1ccccc1 | 0.0 | -2.0
Cc1ccc(S(=O)(=O)CC(c2ccccc2)N2CCOCC2)cc1 (stereo unspecified) | 12.0 | -0.4
COC(=O)C(NC=O)C(O)(C#Cc1ccccc1)C(F)(F)F (stereo unspecified) | 1.0 | nt
O=C(NCc1ccncc1)C1CCN(S(=O)(=O)c2ccccc2)CC1 | 16.0 | -30.6
O=C(O)C1CCCN1S(=O)(=O)c1cccs1 (stereo unspecified) | -7.0 | -7.2

Arranged by number of heavy atoms (low to high): 7 of the compounds above.
SMILES | Sa helicase inh | MgrA DNA FP
O=C(O)C1CCCN1S(=O)(=O)c1cccs1 (stereo unspecified) | -7.0 | -7.2
O=C(O)/C=C/C(=O)NN1C(=O)c2ccccc2C1=O | -1.0 | -3.7
O=C(c1ccccc1)c1nccn1-c1ccc(Cl)nn1 | 7.0 | nt
N#Cc1c(-c2ccccc2)cc(-c2ccccc2)nc1N | 9.0 | -0.9
CCN(CC(=O)Nc1ccccc1)S(=O)(=O)c1ccccc1 | 0.0 | -2.0
OCCNc1nc2ccccc2n1-c1ncnc2sc3c(c12)CCCC3 | -25.0 | nt
CCOC(=O)N1CCC(NC(=O)CCc2c(C)nc3cc(-c4ccccc4)nn3c2C)CC1 | 2.0 | nt

(listing goes on)
SMILES | Sa helicase inh | MgrA DNA FP
Nc1nonc1C(=O)NCc1ccc2c(c1)OCO2 | 12.0 | nt
Cc1noc(C)c1C(=O)N(c1ccccc1)C(C(=O)NC1CCCC1)c1ccc(F)cc1 (stereo unspecified) | -1.0 | 0.4
COC(CNC(=O)c1ccc(NC2=NC3CS(=O)(=O)CC3S2)cc1)OC (stereo unspecified) | 6.0 | nt
CCCCc1noc2c1/C(=N\O)CC(c1ccccc1)C2 (stereo unspecified) | 1.0 | 0.7
CCN1C(=O)/C(=C2/Sc3ccc(OC)cc3N2C)OC1=S | 4.0 | 3.5
NS(=O)(=O)c1ccc(CCNC(=O)CSc2nc3ccccc3c(=O)n2C2CCCC2)cc1 | -11.0 | nt
NCCCCn1ccnc1 | 11.0 | -5.1
O=C(CC1(O)C(=O)N(Cc2ccccc2)c2ccccc21)c1ccncc1 (stereo unspecified) | -6.0 | 3.3
O=C(Nc1cc(-c2ccc(Cl)cc2)[nH]n1)C1Cc2ccccc2C1 | nt | -0.9
O=c1c2c([nH]c3ccccc13)CCCC2 | -18.0&10.0 | nt
CC(=O)N1CCOc2ccc(S(=O)(=O)NCC3CCC(C(=O)Nc4ccc(C)cc4)CC3)cc21 (stereo unspecified) | -8.0 | nt
CCCCn1nnc(NC(=O)c2cccc(F)c2)n1 | 7.0 | 3.7
CC(C)(C)CC(=O)Nc1cccc(F)c1 | -14.0 | 0.9
Cc1cccnc1/N=C/c1c(O)c2ccccc2oc1=O | -22.0 | nt
CCOC(=O)N/N=C/c1ccccc1C(F)(F)F | -14.0 | nt
O=C(O)c1ccc(Cn2ccc3ccccc32)o1 | 2.0 | 6.3
COc1ccc(NC(C)C(=O)N/N=C/c2ccccc2OC)cc1 (stereo unspecified) | -26.0 | nt
CSc1nc(N)nc(SCCS(=O)(=O)c2ccc(Cl)cc2)c1C#N | 12.0 | 0.2
Cc1ccc2c(c1)C1CN(C)CCC1N2C(=O)Nc1ccc(F)cc1F (stereo unspecified) | -10.0 | nt
CC(=O)N1[C@@H](c2ccc(F)cc2)SC[C@H]1C(=O)O | 2.0 | -5.8
CCSc1nnc(C)c(=O)[nH]1 | 8.0 | -2.4
N#Cc1cnc2c(Br)cnn2c1N | nt | -0.7
C=C(C)C1CC=C(CNc2ccc3c(c2)OCO3)CC1 (stereo unspecified) | -37.0 | 17.8
COc1ccc(Cc2cnc(NC(=O)Cc3ccccc3)s2)cc1 | 12.0 | nt
O=c1[nH]c2c(s1)C(c1ccco1)C1C3CCC(C3)C1S2 (stereo unspecified) | -8.0 | 3.5
CC(NC(=O)C1CCCN1C(=O)c1cccs1)c1ccc(-n2ccnc2)cc1 (stereo unspecified) | -8.0 | nt
COC(=O)c1ccc(Cl)cc1NC(=O)c1cccnc1Oc1ccccc1 | nt | -0.9
COC(=O)/C(C#N)=C\Nc1ccccn1 | 3.0 | nt
Cc1cc(C(F)(F)F)c2c(N)c(C(=O)Nc3ccc(F)cc3)sc2n1 | nt | 11.8
COc1ccccc1-c1[nH]ncc1CNCCc1ccccc1 | 3.0 | -0.4
Cc1ccc(-c2nn(CCC#N)cc2CO)cc1 | 4.0 | nt
CCOC(=O)Cc1cc(=O)c2c(=O)n(-c3ccccc3)[nH]c2[nH]1 | -5.0 | nt
O=C(c1cccc(C(=O)n2cnc3ccccc32)c1)n1cnc2ccccc21 | -1.0 | nt
CC(O/N=C/c1ccco1)C(=O)N1CCN(Cc2ccccc2)CC1 (stereo unspecified) | -9.0 | nt
C=CCN1COc2c(ccc3c(C(=O)OCC)c(NC(=O)c4ccccc4)sc23)C1 | 15.0 | 2.5
CCc1cc2c(=O)c(-c3nc(C)cs3)coc2cc1O | 2.0 | -3.0
CC1CC(=O)Nc2ccccc2N1C(=O)Cn1cnc2ccc(Br)cc2c1=O (stereo unspecified) | 2.0 | nt
O=C(CSc1nc2scc(-c3ccccc3)c2c(=O)[nH]1)c1ccccc1 | -9.0 | nt
O=C(Nc1ccc(N2CCCCC2)cc1)C1CCCC1 | -12.0 | nt
CSC1=C(C#N)C(=O)NC(c2ccc3c(c2)OCO3)S1 (stereo unspecified) | nt | -1.7

Of the compounds above, 2 have a tert-butyl group:
SMILES | Sa helicase inh | MgrA DNA FP
CC(C)(C)OC(=O)Cn1c(=O)cnc2ccccc21 | -14.0 | nt
CC(C)(C)CC(=O)Nc1cccc(F)c1 | -14.0 | 0.9

One compound at a time (already shown):
`CC(O/N=C/c1ccco1)C(=O)N1CCN(Cc2ccccc2)CC1` (stereo unspecified) is entered as Sa helicase inh = -9.0; MgrA DNA FP = nt
`O=C(Nc1ccc(N2CCCCC2)cc1)C1CCCC1` is entered as Sa helicase inh = -12.0; MgrA DNA FP = nt

(list continues)
SMILES | Sa helicase inh | MgrA DNA FP
CCOC(=O)C1CCCCN1C(=O)CCc1c(C)nc2ncnn2c1C (stereo unspecified) | 12.0 | nt
CCc1ccc(Nc2nc3ccccc3c3nncn23)cc1 | -37.0 | nt
O=C(COC(=O)C1(c2ccccc2F)CCCC1)NC1CC1 | -21.0 | 0.8
CC(=O)N1c2ccccc2Sc2ccccc21 | -10.0 | -1.8
CN(C)S(=O)(=O)c1ccc2c(c1)oc(=O)n2C | -15.0 | 3.2
C=CCN1C(=O)C2C(C(=O)NCc3ccccc3)C3C=CC2(O3)C1C(=O)NC(C)(C)C (stereo unspecified) | 0.0 | -1.0
NC(=O)c1nnc(Cc2ccc(Cl)cc2Cl)o1 | 12.0 | 1.3
CC1=Nc2nc(N3CCOCC3)c(C#N)c3c4c(nc(c23)N1)N(c1cccc(Cl)c1)C(=O)C4 | 16.0 | nt
COc1cc(/C=C/C(=O)OCC(N)=O)ccc1OCC#N | -5.0 | nt
COc1ccc(N/C=C\C(=S)c2ccc(OC)cc2)cc1 | nt | -2.0
CCCOc1ccc(Oc2nc(N(C)C)nc(N(C)C)n2)nn1 | 6.0 | 1.4
CC1CCN(C(=O)c2ccccc2NS(=O)(=O)c2ccc(F)cc2)CC1 | -1.0 | 1.4
Cc1cc(Oc2ccc(=O)n(C)n2)nc(Oc2ccc(=O)n(C)n2)n1 | 2.0 | -0.1
CCn1c(=NC(=O)c2ccc(C#N)cc2)sc2cccc(F)c21 | 7.0 | nt
CC(=O)N1c2ccccc2NC2=C(C(=O)CCC2)C1c1ccc(N(C)C)cc1 (stereo unspecified) | 8.0 | 0.8
CC(C)n1cnc2cc(NCc3ccc(Cl)cc3)ccc21 | 37.0 | nt
COc1cc(OC)cc(C(=O)Nc2ccc3oc(-c4ccc(OC)c(Cl)c4)nc3c2)c1 | nt | -0.5
O=C(/C=C/c1ccco1)NC(=S)Nc1ccccc1O | -9.0 | 17.5
COc1ccc(-c2cc(C(=O)OCCN3CCOCC3)c3ccccc3n2)cc1 | -4.0 | nt
Cc1cc(NCCC(C)C)n2c(nc3ccccc32)c1C#N | -20.0 | nt
CCCSc1nnc(Cn2c(=O)sc3ccccc32)n1-c1ccccc1C | 1.0 | nt
CN1C(=O)C(=C2C=C(c3ccccc3)N(Cc3ccco3)C3=C2CCCC3)C(=O)N(C)C1=O | -8.0 | nt
CCOc1ccc2nc(NC(=O)c3ccccc3Cl)sc2c1 | -22.0 | 1.4
O=C(O)c1ccc2ncccc2c1 | -1.0 | -0.2
C(=Nc1ccccc1)c1ccc2c(c1)OCO2 | nt | 0.5
N#CC(c1nc2ccccc2nc1N1CCCCC1)S(=O)(=O)c1cccs1 (stereo unspecified) | 8.0 | nt
CCCC(=O)Nc1nncs1 | -2.0 | 0.4
O=C(N1CCN=C1c1ccccc1)N1c2ccccc2Sc2ccccc21 | 6.0 | 1.3
CCOC(=O)c1sc(/N=C/c2ccc(O)cc2O)cc1C | -117.0 | nt
COc1ccc2sc(C)[n+](CCO)c2c1 | 18.0 | 1.2
CNC(=O)c1ccccc1NC(=O)c1cccc(S(=O)(=O)N2CCC(C)CC2)c1 | -2.0 | 1.1
CC1CCN(CCNC(=O)C2CCCN(S(=O)(=O)c3cccc4nsnc34)C2)CC1 (stereo unspecified) | 20.0 | 0.2
C#CCN1C(=O)S/C(=C\c2ccc(OCc3ccc(C(=O)O)o3)cc2)C1=O | 2.0 | 6.3
CC(C)N(CCC#N)C(=O)Nc1ccc(F)cc1 | 14.0 | nt
Cc1nnc(SCc2ccc(C(=O)c3ccc(F)cc3)cc2)[nH]c1=O | -19.0 | nt
CC(C)C(OC(=O)c1ccc2c(c1)NC(=O)C(C)(C)O2)C(=O)NC1CCCC1 (stereo unspecified) | -1.0 | -0.7
CC(C)(C)c1ccc(Oc2ncccc2NC(=O)c2ccccc2Cl)cc1 | nt | 0.6
CCOC(=O)C1=C(C)N=c2s/c(=C\c3ccc(OC)c(OC)c3)c(=O)n2C1c1ccc(OC)c(OC)c1 (stereo unspecified) | nt | 0.2
CC(C)(C)C1=CC(=O)c2c(ccc(C(C)(C)C)c2O)C1=O | 3.0 | 4.2
O=C(O)CNC(=O)c1ccc(N2C(=O)c3ccccc3C2=O)cc1 | 6.0 | -2.9
NS(=O)(=O)c1ccc(NC(=O)C(Sc2ccccc2)c2ccccc2)cc1 (stereo unspecified) | 19.0 | -0.6
COc1ccc(OCC(=O)OCc2c(F)cccc2Cl)cc1 | 7.0 | -5.8
Cc1ccc(C(=O)NCC(=O)O)o1 | -8.0 | -0.3
CCn1c(COc2ccccc2C(N)=O)nc2ccccc21 | 1.0 | -0.3
CCOC(=O)C1C(c2ccccc2)NC(=S)NC1(O)C(F)(F)F (stereo unspecified) | 5.0 | 3.0
Cc1ccc(S(=O)(=O)N/N=C/c2ccc(Cl)c(Cl)c2)cc1 | nt | 1.0
O=C(OCc1cn2cc(Cl)ccc2n1)c1cccc(-n2cnnn2)c1 | -6.0 | nt
O=C(OC1CCCCC1)C1CCCN1S(=O)(=O)c1cccc2nsnc12 (stereo unspecified) | -2.0 | nt
CCOc1ccc(CCNC(=O)C2CC(=O)OC2c2ccc(OC)c(OC)c2)cc1 (stereo unspecified) | 12.0 | 3.5
O=C(O)/C=C\C(=O)NC1CCN(Cc2ccccc2)CC1 | 7.0 | nt
COP1(=S)C2=C(N3CCOCC3)CC(C)(C)CC2=Nc2c1c(C)nn2-c1ccccc1 (stereo unspecified) | 8.0 | nt
Cc1oc(-c2ccc(Cl)cc2)cc1C(=O)Nc1ccccc1 | 1.0 | nt
CCCC(=O)Nc1nnc(SCC(=O)Nc2ccc(C)cc2C)s1 | -18.0 | nt
O=C(c1ccc(-c2nc3ccccc3s2)s1)N1CCCCC1 | 0.0 | nt
COc1ccc(NC(=O)c2snnc2C)cc1 | 8.0 | nt
O=C(Nc1cc(Cl)cc(Cl)c1)Nc1cc(-c2ccccc2)[nH]n1 | nt | -3.0
O=c1[nH]c2cc3c(cc2cc1C(c1nnnn1C1CCCC1)N1CCc2ccccc21)OCCO3 (stereo unspecified) | 0.0 | 6.2

Look-ups from the list.
For Sa helicase inh, `O=C(OC1CCCCC1)C1CCCN1S(=O)(=O)c1cccc2nsnc12` (stereo unspecified) is listed with -2.0
For MgrA DNA FP, `CCOc1ccc(CCNC(=O)C2CC(=O)OC2c2ccc(OC)c(OC)c2)cc1` (stereo unspecified) is listed with 3.5

Source: PubChem BioAssay (ICCB-Longwood Screening Facility, Harvard Medical School)
